High-throughput results deposited in PubChem by National Center for Advancing Translational Sciences (NCATS).
RE007 growth inh – less growth of the S. pombe RE007 Vpr strain. S. pombe RE007 Vpr strain, BacTiter-Glo ATP luminescence, 24 h; control for the full effect not named in the record. Potency, µM (top dose mostly 92.2 µM), without a hit: at the highest dose activity change, negative = less growth. 0.21% of 360,000 active. AID 651644; active = well fitted falling curve with a large enough effect; inconclusive = small, poorly fitted or top-dose-only effect; inactive = no such curve, though single readings can be large or run the other way;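 also: % is scaled to controls: 0 for no effect and ±100 for the full control effect; nearly all actives have a fitted effect of over 50% in size; the assay follows cell death caused by Vpr and the record does not say whether a fall means rescue or toxicity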
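Fission yeast RE007 carrying one integrated HIV-1 vpr copy, seeded at OD 0.01 in PMG+AL medium with 23 nL pinned compound. Grown 24 h at 30 degrees; viability read by BacTiter-Glo luminescence after 5 min.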
SARS PLP yeast – inhibitors of SARS-CoV papain-like protease in yeast. S. cerevisiae expressing SARS-CoV PLpro, growth rescue; control for the full effect not named in the record. Potency, µM (titrated, usually from 32.9 µM), for inactives: at the highest dose activity, positive = growth rescue. 0.19% of 330,000 active. AID 485353; active means well fitted rising curve with a large enough effect; inconclusive means small, poorly fitted or top-dose-only effect; inactive means no such curve, though single readings can be large or run the other way; also: 0% is about no effect; nearly all actives have a fitted effect of over 55% in size; growth read by luminescence after 48 h
2A StopGo – FMDV 2A StopGo reporter, luciferase signal; 1.2% of 410,000 active; human cells with a luciferase reporter of 2A StopGo recoding; control for the full effect not named in the record; Potency, µM (series often up to 57.9 µM), for inactives: at the highest dose signal change, negative = less light; AID 1159524; active = well fitted falling curve with a large enough effect; inconclusive = small, poorly fitted or top-dose-only effect; inactive = no such curve, though single readings can be large or run the other way; tested in HEK293T cells; also: % is scaled to controls: 0 for no effect and ±100 for the full control effect; nearly all actives have a fitted effect of over 45% in size; luciferase light after 4 h
LASV entry inh – inhibitors of Lassa virus binding or cell entry; Lassa virus pseudotype entry inhibition, cell reporter; control for the full effect not named in the record; Potency, µM (highest dose often 37.9 µM), without a hit: at the top dose activity change, negative = inhibition, actives largely listed as inhibitors; 1.2% of 300,000 active; active means well fitted inhibition curve with a large enough effect; inconclusive means small, poorly fitted or top-dose-only effect, or effect the other way; inactive means flat fitted curve, though single readings scatter; tested in HEK293 cells; also: % is scaled to controls: 0 for no effect and ±100 for the full control effect; nearly all actives have a fitted effect of over 50% in size; luciferase read-out
MARV entry inh – blocks Marburg virus binding to or entry into cells | Marburg virus pseudotyped entry inhibition, cell reporter; control for the full effect not named in the record; about a third of the inactives were read at about 46 µM | Potency, µM (top dose mostly 37.8 µM), for the others: at the top dose activity change, negative = inhibition, hits mostly inhibitors | 1.8% of 300,000 active | AID 540276; active = well fitted inhibition curve with a large enough effect; inconclusive = small, poorly fitted or top-dose-only effect, or effect the other way; inactive = flat fitted curve, though single readings scatter; tested in HEK293 cells; about a fifth of its hits are not listed in these tables; also: % is scaled to controls: 0 for no effect and ±100 for the full control effect; luciferase read-out
Cruzain Triton – cruzain (T. cruzi) inhibition with detergent | 0.43% of 200,000 active | Potency, µM, inactives show max response, negative = inhibition, hits mostly inhibitors | P25779 | purified cruzain, Z-FR-AMC fluorescence, 0.01% Triton;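 also: plate controls were neutral wells for no effect and buffer without enzyme for full effect; nearly all actives have a fitted effect of over 40% in size; top concentration of the series not given in the record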
Target sequence (P25779 123-467 limits assumed): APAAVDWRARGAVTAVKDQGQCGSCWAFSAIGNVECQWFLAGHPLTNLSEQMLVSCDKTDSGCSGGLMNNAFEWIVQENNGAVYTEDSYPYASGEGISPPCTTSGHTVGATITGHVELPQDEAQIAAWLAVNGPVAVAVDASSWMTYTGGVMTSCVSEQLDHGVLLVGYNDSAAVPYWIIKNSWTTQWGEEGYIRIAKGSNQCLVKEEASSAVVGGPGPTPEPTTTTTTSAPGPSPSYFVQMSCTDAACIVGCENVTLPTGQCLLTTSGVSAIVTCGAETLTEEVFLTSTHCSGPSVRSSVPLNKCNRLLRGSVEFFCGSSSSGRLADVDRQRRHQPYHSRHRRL
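Purified cruzain (1.5 nM final) was preincubated with compounds for 15 min at room temperature in 100 mM sodium acetate pH 5.5, 5 mM DTT, 0.01% Triton X-100. Reaction started with 2 uM Z-FR-AMC; AMC fluorescence change over 60 s gave activity.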
NS1 function inh – influenza NS1 inhibition | S. cerevisiae slowed by influenza A NS1, growth recovery by OD600 | Potency, µM (doses to about 46.1 µM), inactives show top-dose activity, positive = more growth | 0.4% of 270,000 active; active means well fitted rising curve with a large enough effect; inconclusive means small, poorly fitted or top-dose-only effect; inactive means no such curve, though single readings can be large or run the other way; also: nearly all actives have a fitted effect of over 50% in size
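In this qHTS, NS1 from influenza A is expressed in budding yeast, where it slows growth. Cells are switched from glucose to 2% galactose medium (pH 6.0, -URA), treated with compound, and growth recovery is read at OD600.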
Cruzain inh noDet – blocks cruzain activity in detergent-free assay; P25779; purified cruzain, Z-FR-AMC fluorescence, no detergent; Potency, µM, for the others: max response, negative = inhibition, usual class: inhibitors; 2.3% of 200,000 active; AID 1476;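 also: plate controls were enzyme without inhibitor for no effect and buffer without enzyme for full effect; nearly all actives have a fitted effect of over 40% in size; top concentration of the series not given in the record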
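Detergent-free condition (0.00005% Triton X-100) in acetate buffer pH 5.5 with DTT. 1.5 nM enzyme and compound were pre-mixed 15 min, then 2 uM Z-FR-AMC substrate added; reaction progress from fluorescence change between first and third reads (60 s).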
An asterisk follows results filed as active; & = joins results of further samples; [ ] = remark or other dose. Unless noted, calls follow the shape of the dose curve; as a rule, active = well fitted curve in the direction sought with a large enough effect; inconclusive = small, poorly fitted or top-dose-only effect, or another doubt; inactive = no such curve, though single readings can be large; an effect the other way counts as inactive or inconclusive. Potency is read from the fitted curve at half-maximal effect.

CCOC(=O)N1CCN(C(=O)C2CCN(S(=O)(=O)c3ccc(Cl)cc3)CC2)CC1 was read as RE007 growth inh -19%[3.69 µM], SARS PLP yeast -1%, 2A StopGo -9%, LASV entry inh -2%, MARV entry inh inconclusive, Cruzain Triton -0.8%, NS1 function inh -11% and Cruzain inh noDet inconclusive.
`COc1ccccc1CNC(=O)CCCNC(=O)Cn1cnc2sc(C)c(C)c2c1=O` gave RE007 growth inh 18%, SARS PLP yeast 1%, 2A StopGo -9%, LASV entry inh -11%, MARV entry inh -13%[46.1 µM] and NS1 function inh 2%.
For Cc1ccc(CNC(=O)Cn2nnc3ccccc3c2=O)cc1 the results were RE007 growth inh -8%, SARS PLP yeast -1%, 2A StopGo 55%[activator], LASV entry inh 3% and MARV entry inh -15%.
For Cc1ccc(-c2nn(-c3ccccc3)cc2C(=O)OCC(=O)Nc2ncc(Cl)cc2Cl)cc1 the results were RE007 growth inh 32%, SARS PLP yeast 6%, 2A StopGo -2%, LASV entry inh -21%, MARV entry inh inconclusive, Cruzain Triton -5.9%, NS1 function inh 9% and Cruzain inh noDet 32µM*.
For CCCNC(=O)CCc1c(C)nc2c(c(C)nn2-c2ccccc2)c1C the results were RE007 growth inh 10%, SARS PLP yeast 0%, 2A StopGo -4% and NS1 function inh -4%.
For CCOC(=O)C1=C(Nc2ccccc2)OCC1=O the results were RE007 growth inh 8%, SARS PLP yeast -2%, 2A StopGo 1%, LASV entry inh 2%, MARV entry inh -4%, Cruzain Triton -0.8%, NS1 function inh -6% and Cruzain inh noDet 1%.
COc1ccc(C(=O)NCC(C)(C)CNC(=O)c2ccc(OC)c(OC)c2)cc1OC was read as RE007 growth inh 0%, 2A StopGo -18%, LASV entry inh 5%[46.1 µM] and MARV entry inh 4%[46.1 µM].
Screening O=C(Cc1cccs1)Nc1nnc(SCc2ccc(F)cc2)s1 returned RE007 growth inh 7%, SARS PLP yeast 7%, 2A StopGo -6%, LASV entry inh -19%, MARV entry inh inconclusive, Cruzain Triton -0.3%, NS1 function inh -2% and Cruzain inh noDet inconclusive.
CC(C)(C)C1CCc2onc(C(=O)Nc3sc4c(c3C(N)=O)CCCC4)c2C1 (stereo not drawn) was read as 2A StopGo 7%, LASV entry inh 2%[46.1 µM], MARV entry inh -33%[46.1 µM], Cruzain Triton -6.6% and Cruzain inh noDet -4%.
`CCOC(=O)C1=C(C)NC(SCc2cc(=O)[nH][nH]2)=C(C#N)C1c1cccs1` (stereo not drawn) gave RE007 growth inh 14%, SARS PLP yeast 2%, LASV entry inh 6%, MARV entry inh 6%, Cruzain Triton -18%, NS1 function inh inconclusive and Cruzain inh noDet -21%.
`COc1ccc(N2CC(NC(=O)/C=C\c3ccc4c(c3)OCO4)CC2=O)cc1` (stereo not drawn) gave 2A StopGo -20%, LASV entry inh 2%[46.1 µM], Cruzain Triton -12% and Cruzain inh noDet inconclusive.
Cc1ccccc1-c1ccc(=O)n(CC(=O)Nc2ccc(S(=O)(=O)N(C)C)cc2)n1 was read as RE007 growth inh 4%, SARS PLP yeast -1%, 2A StopGo 6%, LASV entry inh -21%[46.1 µM], MARV entry inh inconclusive and NS1 function inh -4%.
NC(=O)N\N=C/C=C/C=C/c1ccc(F)cc1 was read as RE007 growth inh 5%, SARS PLP yeast 0%, 2A StopGo 3%, LASV entry inh inconclusive, MARV entry inh 16% and NS1 function inh 0%.
For COc1ccc(S(=O)(=O)NNC(=O)C23CC4CC(CC(C4)C2)C3)cc1 the results were RE007 growth inh 1%, SARS PLP yeast inconclusive, 2A StopGo 20%, LASV entry inh -4%, MARV entry inh 13% and NS1 function inh 6%.
`Cc1ccc(-n2nc3ccc(NC(=O)c4cc5ccccc5o4)cc3n2)cc1` gave 2A StopGo 28%, LASV entry inh 19%[46.1 µM], Cruzain Triton -0.2% and Cruzain inh noDet 10%.
For CCOC(=O)C1CCCN(c2c(Nc3cc(C)cc(C)c3)c(=O)c2=O)C1 (stereo not drawn) the results were RE007 growth inh 3%, SARS PLP yeast 18%, 2A StopGo 0%, MARV entry inh 1%, Cruzain Triton -7.0%, NS1 function inh -1% and Cruzain inh noDet -5%.
`COc1cccc(NC(=O)c2ccc(-c3ccc([N+](=O)[O-])cc3)o2)c1` gave RE007 growth inh -13%, SARS PLP yeast -1%, 2A StopGo -13%, LASV entry inh 4%[46.1 µM], MARV entry inh inconclusive and NS1 function inh 1%.
`CC(NS(=O)(=O)c1ccccc1)C(=O)NC1CCCC1` (stereo not drawn) gave RE007 growth inh 8%, SARS PLP yeast -9%, 2A StopGo -7%, LASV entry inh -1%[46.1 µM], MARV entry inh 5%[46.1 µM] and NS1 function inh 7%.
Cc1nn(CC(=O)N2CCC(C)CC2)c(=O)c2cc3sccc3n12 was read as 2A StopGo -16%, MARV entry inh 9%[46.1 µM], Cruzain Triton -3.5% and Cruzain inh noDet -7%.
Screening COc1cccc(C(=O)Nc2nc(-c3nnn(-c4cccc(Cl)c4C)c3C)ns2)c1 returned 2A StopGo -19%, LASV entry inh 3%[46.1 µM], Cruzain Triton -1.6% and Cruzain inh noDet -27%.
O=C(Cc1ccccc1)N1CCN(C/C=C/c2ccccc2)CC1 was read as RE007 growth inh 13%, SARS PLP yeast 3%, 2A StopGo -3%, LASV entry inh -2%, MARV entry inh -1%, Cruzain Triton -0.9%, NS1 function inh 5% and Cruzain inh noDet 4%.
Cn1cccc1CNC(=O)Nc1ccccc1 was read as RE007 growth inh 21%, SARS PLP yeast -12%, 2A StopGo 92%[activator], LASV entry inh inconclusive, MARV entry inh 17%, Cruzain Triton 3.2%, NS1 function inh 18% and Cruzain inh noDet -13%.
For O=C(c1cc(COc2c(F)cccc2F)on1)N1CCN(C2CCCCC2)CC1 the results were RE007 growth inh -11%, SARS PLP yeast 3%, 2A StopGo -23% and NS1 function inh -2%.
`CCN(CC(=O)Nc1ccccc1OC)C(=O)C1CCC1` gave RE007 growth inh 5%, SARS PLP yeast -7%, 2A StopGo -16%, LASV entry inh 6% and MARV entry inh inconclusive.
For CC(Sc1nnnn1C)C(=O)Nc1ccccc1 (stereo not drawn) the results were RE007 growth inh -5%, SARS PLP yeast -8%, 2A StopGo 6%, LASV entry inh 12%, MARV entry inh -1%[46.1 µM] and NS1 function inh 3%.
`COC(=O)CC1(c2ccccc2)C(=O)c2ccccc2C1=O` gave RE007 growth inh 15%, SARS PLP yeast -2%, 2A StopGo -1%, LASV entry inh -13%, MARV entry inh -13%, Cruzain Triton -2.1%, NS1 function inh 2% and Cruzain inh noDet -10%.
CC(=O)NC1(c2cccc(F)c2)CCN(CC(=O)NC2CCCCC2)CC1 was read as RE007 growth inh 4%, SARS PLP yeast 1%, 2A StopGo -10%, LASV entry inh inconclusive, MARV entry inh 9%, Cruzain Triton 2.4%, NS1 function inh -1% and Cruzain inh noDet 3%.
Screening Cn1c(-n2c(CCCN3C(=O)c4ccccc4C3=O)nc3ccccc3c2=O)nc2ccccc21 returned RE007 growth inh 11%, SARS PLP yeast 1%, 2A StopGo 0%, LASV entry inh 12%, MARV entry inh -2%&-2%, Cruzain Triton -0.1%, NS1 function inh -9% and Cruzain inh noDet -2%.
For O=C(COC(=O)Cc1ccc(S(=O)(=O)N2CCOCC2)s1)Nc1ccccc1 the results were RE007 growth inh 6%, SARS PLP yeast 10%, 2A StopGo 0%, LASV entry inh 8%[46.1 µM] and MARV entry inh 8%[46.1 µM].
O=C(O)c1ccc(Br)cn1 was read as RE007 growth inh 16%, SARS PLP yeast -3%, 2A StopGo -16%, LASV entry inh 9%[46.1 µM] and MARV entry inh -2%[46.1 µM].
COc1cccc(C(=O)NC2CCCc3ccccc32)c1OC (stereo not drawn) was read as RE007 growth inh -17%, SARS PLP yeast 1%, 2A StopGo 36%[activator], MARV entry inh -26%[46.1 µM] and NS1 function inh 6%.
`COc1cc(OC)cc(C(=O)NC(=S)N(Cc2ccccc2)C(C)C)c1` gave RE007 growth inh 5%, SARS PLP yeast 0%, 2A StopGo -4%, LASV entry inh inconclusive, MARV entry inh inconclusive and NS1 function inh inconclusive.
COc1ccccc1N1C(=O)C2CC(C)=C(C)CC2C1=O (stereo not drawn) was read as RE007 growth inh -9%, SARS PLP yeast 0%, LASV entry inh 15%, MARV entry inh -11%, Cruzain Triton 0.6%, NS1 function inh -4% and Cruzain inh noDet 0%.
Screening CC(C)NC(=O)COC(=O)CNC(=O)c1cc(Cl)cc([N+](=O)[O-])c1 returned RE007 growth inh -7%, SARS PLP yeast 2%, 2A StopGo -21%, LASV entry inh 1%, MARV entry inh 14%, Cruzain Triton 7.9µM*, NS1 function inh -1% and Cruzain inh noDet 7.9µM*.
COc1cc(C)c(C(C)C)cc1S(=O)(=O)N1CCOCC1 was read as RE007 growth inh 7%, SARS PLP yeast 7%, 2A StopGo 7%, LASV entry inh 5%, MARV entry inh 7%[46.1 µM], Cruzain Triton 4.2%, NS1 function inh -53% and Cruzain inh noDet 11%.
Screening COCCCNC(=O)CCCn1c(=O)c2ccccc2n(CC(=O)Nc2c(C)cccc2C)c1=O returned RE007 growth inh 0%, SARS PLP yeast 4%, 2A StopGo -3%, LASV entry inh 5%, MARV entry inh inconclusive, Cruzain Triton -1.1%, NS1 function inh -5% and Cruzain inh noDet -3%.
Screening COc1ccc(S(=O)(=O)Cc2ccc(C(=O)N3CCOCC3)o2)cc1 returned RE007 growth inh 11%, SARS PLP yeast 6%, 2A StopGo -23%, Cruzain Triton -0.3%, NS1 function inh -1% and Cruzain inh noDet inconclusive.
`Cc1[nH]c2ccccc2c1C(=O)CSC(=S)N(C)C1CCCCC1` gave RE007 growth inh 24%, SARS PLP yeast -20%, 2A StopGo -15%, LASV entry inh inconclusive, MARV entry inh 3%, Cruzain Triton -4.2%, NS1 function inh 20% and Cruzain inh noDet inconclusive.
`C/C(=N\NC(=O)COc1ccc(C)cc1C(C)C)c1cc2ccccc2o1` gave RE007 growth inh -6%, SARS PLP yeast 4%, 2A StopGo 16%, LASV entry inh -14%[46.1 µM], MARV entry inh inconclusive, Cruzain Triton -11%, NS1 function inh -4% and Cruzain inh noDet 0%.
